RE007 growth inh = less growth of the S. pombe RE007 Vpr strain; S. pombe RE007 Vpr strain, BacTiter-Glo ATP luminescence, 24 h; control for the full effect not named in the record; Potency, µM (doses to about 92.2 µM), for inactives: at the top dose activity change, negative = less growth; actives 0.21% (n = 360,000); AID 651644; active = well fitted falling curve with a large enough effect; inconclusive = small, poorly fitted or top-dose-only effect; inactive = no such curve, though single readings can be large or run the other way;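 further: on the % scale 0 is the no-effect control and ±100 the full control effect; nearly all actives have a fitted effect of over 50% in size; the assay follows cell death caused by Vpr and the record does not say whether a fall means rescue or toxicity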
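Fission yeast RE007 carrying one integrated HIV-1 vpr copy, seeded at OD 0.01 in PMG+AL medium with 23 nL pinned compound. Grown 24 h at 30 degrees; viability read by BacTiter-Glo luminescence after 5 min.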
SARS PLP yeast = blocks SARS-CoV papain-like protease in a yeast assay. S. cerevisiae expressing SARS-CoV PLpro, growth rescue; control for the full effect not named in the record. Potency, µM (series often up to 32.9 µM), for inactives: at the highest dose activity, positive = growth rescue. actives 0.19% (n = 330,000). AID 485353; further: 0% is about no effect; nearly all actives have a fitted effect of over 55% in size; growth read by luminescence after 48 h
MARV entry inh = blocks Marburg virus binding to or entry into cells. Marburg virus pseudotyped entry inhibition, cell reporter; control for the full effect not named in the record; about a third of the inactives were read at about 46 µM. Potency, µM (top dose mostly 37.8 µM), for the others: at the top dose activity change, negative = inhibition, hits mostly inhibitors. actives 1.8% (n = 300,000). AID 540276; active = well fitted inhibition curve with a large enough effect; inconclusive = small, poorly fitted or top-dose-only effect, or effect the other way; inactive = flat fitted curve, though single readings scatter; tested in HEK293 cells; about a fifth of its hits are not listed in these tables; further: on the % scale 0 is the no-effect control and ±100 the full control effect; luciferase read-out
Cruzain noTriton = cruzain (T. cruzi) inhibition without detergent | actives 2.3% (n = 200,000) | AID 1476 | Potency, µM, without a hit: max response, negative = inhibition, hits mostly inhibitors | purified cruzain, Z-FR-AMC fluorescence, no detergent; active means well fitted curve in the direction sought with a large enough effect; inconclusive means small, poorly fitted or top-dose-only effect, or another doubt; inactive means no such curve, though single readings can be large; an effect the other way counts as inactive or inconclusive;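 further: plate controls were enzyme without inhibitor for no effect and buffer without enzyme for full effect; nearly all actives have a fitted effect of over 40% in size; top concentration of the series not given in the record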
Target sequence (P25779 123-467 limits assumed): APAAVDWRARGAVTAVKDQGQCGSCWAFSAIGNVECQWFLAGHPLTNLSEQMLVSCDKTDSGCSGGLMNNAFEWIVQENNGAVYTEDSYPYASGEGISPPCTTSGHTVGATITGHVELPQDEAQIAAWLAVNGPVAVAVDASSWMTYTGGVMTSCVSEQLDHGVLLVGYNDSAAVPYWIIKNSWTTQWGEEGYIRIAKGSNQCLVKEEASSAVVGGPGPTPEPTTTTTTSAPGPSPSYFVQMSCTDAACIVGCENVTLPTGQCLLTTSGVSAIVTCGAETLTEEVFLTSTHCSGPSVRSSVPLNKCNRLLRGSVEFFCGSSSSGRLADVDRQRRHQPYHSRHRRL
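Detergent-free condition (0.00005% Triton X-100) in acetate buffer pH 5.5 with DTT. 1.5 nM enzyme and compound were pre-mixed 15 min, then 2 uM Z-FR-AMC substrate added; reaction progress from fluorescence change between first and third reads (60 s).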
Cruzain inh Det = inhibitors of Trypanosoma cruzi cruzain with detergent. P25779. purified cruzain, Z-FR-AMC fluorescence, 0.01% Triton. Potency, µM, for inactives: max response, negative = inhibition, hits mostly inhibitors. actives 0.43% (n = 200,000); active means well fitted curve in the direction sought with a large enough effect; inconclusive means small, poorly fitted or top-dose-only effect, or another doubt; inactive means no such curve, though single readings can be large; an effect the other way counts as inactive or inconclusive;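 further: plate controls were neutral wells for no effect and buffer without enzyme for full effect; nearly all actives have a fitted effect of over 40% in size; top concentration of the series not given in the record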
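Detergent-containing run (0.01% Triton X-100) in acetate buffer pH 5.5 with 5 mM DTT: enzyme at 1.5 nM final, 15 min compound preincubation at room temperature, then 2 uM Z-FR-AMC substrate. Activity taken as 60 s fluorescence increase at 360/450 nm.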
NS1 function inh = blocks influenza NS1 protein function. S. cerevisiae slowed by influenza A NS1, growth recovery by OD600. Potency, µM (highest dose often 46.1 µM), without a hit: at the top dose activity, positive = more growth. actives 0.4% (n = 270,000); further: actives are rising curves; nearly all actives have a fitted effect of over 50% in size
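S. cerevisiae expressing influenza A NS1, grown in glucose, washed, then diluted 1:100 into pH 6.0 -URA galactose medium with 23 nl compound. Growth recovery read as OD600; NS1-free strain serves as control.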
Lassa entry inh = blocks Lassa virus binding to or entry into cells; Lassa virus pseudotype entry inhibition, cell reporter; control for the full effect not named in the record; AID 540256; Potency, µM (highest dose often 37.9 µM), for inactives: top-dose activity change, negative = inhibition, usual class: inhibitors; actives 1.2% (n = 300,000); active means well fitted inhibition curve with a large enough effect; inconclusive means small, poorly fitted or top-dose-only effect, or effect the other way; inactive means flat fitted curve, though single readings scatter; tested in HEK293 cells; further: on the % scale 0 is the no-effect control and ±100 the full control effect; nearly all actives have a fitted effect of over 50% in size; luciferase read-out
StopGo reporter = FMDV 2A StopGo reporter, luciferase signal. human cells with a luciferase reporter of 2A StopGo recoding; control for the full effect not named in the record. Potency, µM (series often up to 57.9 µM), for the others: at the highest dose signal change, negative = less light. actives 1.2% (n = 410,000). AID 1159524; active = well fitted falling curve with a large enough effect; inconclusive = small, poorly fitted or top-dose-only effect; inactive = no such curve, though single readings can be large or run the other way; tested in HEK293T cells; further: on the % scale 0 is the no-effect control and ±100 the full control effect; nearly all actives have a fitted effect of over 45% in size; luciferase light after 4 h
Starred values were filed as active, the others as inactive; ? = inconclusive; · = no result given; & = joins results of further samples; [ ] = remark or other dose. Unless noted, the call rests on the fitted dose curve; in most records, active means well fitted rising curve with a large enough effect; inconclusive means small, poorly fitted or top-dose-only effect; inactive means no such curve, though single readings can be large or run the other way. Potency means the concentration at half of the fitted maximal effect.

SMILES	RE007 growth inh	SARS PLP yeast	MARV entry inh	Cruzain noTriton	Cruzain inh Det	NS1 function inh	Lassa entry inh	StopGo reporter
CC(=O)c1ccc(N2CCc3ccccc3C2)c([N+](=O)[O-])c1	-27%	-1%	·	·	·	1%	·	54%[activator]
COC(=O)c1ccccc1NC(=S)NC(=O)CC(C)C	5%	12%	0%	3%	-2.6%	3%	6%	-18%
CCOc1ccc(NC(=O)c2c[nH]n3c(=O)cc(C4CCN(C(=O)OC(C)(C)C)CC4)nc23)cc1	16%	2%	·	·	·	8%	·	-19%
Cc1ccc(C(c2cc(Cl)c3cccnc3c2O)N2CCN(C)CC2)cc1 (stereo not drawn)	-14%	·	?	·	·	-98%	?	?
CCOC=C1C(=O)N(C(C)=O)c2cc(OC)c(OC)cc21	-11%	·	15%[46.1 µM]	·	·	·	0%[46.1 µM]	-9%
CCc1ccc(NC(=O)C(=O)NCC(c2cccnc2)N2CCN(Cc3ccccc3)CC2)cc1 (stereo not drawn)	·	·	·	2%	-3.5%	·	1%[46.1 µM]	?
CN(C)S(=O)(=O)c1ccc(N2CCCC2)c(C(=O)Nc2nc(-c3cc(F)ccc3F)cs2)c1	5%	6%	-30%	?	-3.0%	24%	0%	-13%
COc1ccccc1OCC(=O)Nc1ccccc1C(=O)N1CCCC1	-2%	0%	-2%[46.1 µM]	·	·	8%	5%	0%
O=C(Cc1cccs1)NNC(=S)NC(=O)c1ccco1	12%	3%	?	·	·	·	-7%	2%
O=C(Cn1ncc(N2CCCC2)c(Br)c1=O)c1ccc(Cl)cc1	24%	1%	?	·	·	2%	7%	72%[activator]
COCCCNC(=O)c1sc2ncnc(N3CCc4ccccc4C3)c2c1C	13%	-7%	8.2µM*	?	-18%	14%	?	?
Cc1ccc(Cn2c(C(=O)O)c(CNCc3ccccc3Cl)c3ccc(C)cc32)cc1	·	·	·	-12%	-2.1%	·	?	?
CCCCc1ccc(NC(=O)COCC)cc1	7%	8%	?	-5%	7.0%	-5%	1%	69%[activator]
COc1ccc2oc(C(=O)OCC(=O)NC3CCCC3)c(C)c2c1	-12%	-5%	?	·	·	-35%	14%[46.1 µM]	4%
COCCN(CCOC)C(=O)N1CCOCC1	11%	0%	?	·	·	2%	4%	0%
S=c1[nH]nc(-c2ccco2)n1/N=C/c1ccc(Br)s1	-5%	-3%	17%	-8%	3.8%	-10%	7%	2%
CCOC(=O)C1CCCN(C(=O)c2cc(-c3ccco3)nc3ccccc23)C1 (stereo not drawn)	10%	-3%	-4%	·	·	·	2%	-6%
C(=N\N=C\c1cccs1)/c1cccs1	4%	1%	1%[46.1 µM]	·	·	·	·	29%
COc1cccc(C2c3c(oc4ccc(F)cc4c3=O)C(=O)N2CCCN2CCOCC2)c1 (stereo not drawn)	-2%	9%	-2%	-9%	-1.8%	1%	-11%	-2%
Cc1ccc2cc(C=C(C#N)C#N)c(Cl)nc2c1	-29%	-19%	-1%	0%	?	11%	1%	32µM*
c1ccc(C[n+]2csc3ccccc32)cc1	7%	-30%	13%	2%	-1.5%	-5%	-1%	26%
Cc1ccccc1CNC(=O)C1CCCN(c2nnc(-n3c(C)ccc3C)s2)C1 (stereo not drawn)	·	·	4%[46.1 µM]	3%	-7.0%	·	5%[46.1 µM]	-12%
CCCCN(CCCC)c1nc(-c2ccccc2)nc2ccccc12	·	·	·	-4%	-3.9%	·	-2%[46.1 µM]	-19%
Cc1cc(C)c(NC(=O)Nc2ccccc2)c(Cl)c1	9%	?	?	-11%	-0.3%	14%	1%	-1%
CCN(Cc1ccncc1)Cc1c(O)ccc2cc(Br)ccc12	-18%	2%	?	·	·	·	-3%	-12%
CCOC(=O)c1c(CN(C)C)n(C)c2ccc(OC(C)=O)cc12	11%	-4%	13%	-8%	2.3%	-7%	-2%	1%
CCCCN(C)S(=O)(=O)c1c(C)[nH]c(=O)[nH]c1=O	2%	-3%	?	-8%	-1.9%	3%	-4%	·
CCOC(=O)c1sc(N(C)C)nc1-c1ccccc1	-17%	25%	10%[46.1 µM]	-1%	-6.1%	-2%	-2%	-27%
CNc1nc(N)nc(-c2cc(Cl)ccc2OC)n1	2%	1%	·	·	·	2%	·	6%
COc1cc(/C=N/NC(=O)c2nnn(-c3nonc3N)c2C(C)C)ccc1OCc1ccc(F)cc1	6%	29%	?	·	·	-7%	?	?
FC(F)(F)c1cc(C(F)(F)F)c2ccc(N3CCN(c4ncccn4)CC3)nc2n1	-3%	3%	-27%	-2%	2.0%	14%	26%[14.3 µM]	-8%
Cc1cc(C)cc(NC2=CC(c3cccc(F)c3)N(c3cc(C)cc(C)c3)C2=O)c1 (stereo not drawn)	·	·	-2%[46.1 µM]	-17%	1.4%	·	0%[46.1 µM]	0%
COc1ccc(NC(=O)c2cccnc2)c(OC)c1	9%	5%	3%	-5%	1.8%	-2%	-2%	14%
O=C(Nc1cccc(Br)c1)/C(=C\c1cccnc1)NC(=O)c1ccco1	1%	-7%	-1%	-1%	4.6%	-12%	1%	24%
Cc1ccccc1NC(=O)c1ocnc1C	-4%	-6%	·	-8%	-1.8%	5%	·	-23%
Cc1cc(C)nc(NC(=O)CCCC(=O)O)c1	19%	2%	5%	-5%	6.9%	7%	9%	18%
CN(CC1CCCO1)S(=O)(=O)c1ccc(C(=O)Nc2nc(-c3ccccn3)cs2)cc1 (stereo not drawn)	10%	2%	?	12%	1.4%	-33%	?	28µM*
O=C(NCCCn1ccnc1)c1cc(-c2cccc(O)c2)on1	-7%	0%	·	·	·	-3%	·	54%[activator]
O=C(O)CCc1ccccc1OC(=O)c1ccccc1	-2%	-1%	·	·	·	0%	·	-12%
Cc1cc(C)c(C)c(S(=O)(=O)NC(C)C(=O)O)c1C (stereo not drawn)	8%	-1%	·	·	·	2%	·	-8%
O=C(O)C1CCCN1C(=O)c1cncc(Br)c1 (stereo not drawn)	-21%	-2%	?	7%	6.1%	-4%	-5%	-16%
Cc1cc2ncc(-c3ncc(C(F)(F)F)cc3Cl)cn2n1	-13%	-5%	?	-1%	-1.8%	-1%	?	-79%
CCc1ccc(Cc2cnc(NC(=O)c3ccc4c(c3)CC(c3ccccc3)OC4=O)s2)cc1 (stereo not drawn)	·	·	-3%[46.1 µM]	?	-0.3%	·	25%[46.1 µM]	0%
O=C1CCCc2c1nc(-c1cccc(Cl)c1)n2O	-10%	1%	-19%	3%	-0.2%	6%	5%	·
CC1Sc2ccc(S(=O)(=O)CCC(=O)NC(C)c3ccccc3)cc2NC1=O (stereo not drawn)	9%	6%	·	·	·	-4%	·	-12%
Cn1nc(-c2ccc(Cl)cc2)c2cc(C(=O)NCCN3CCOCC3)sc21	4%	1%	·	-14%	-26%	-31%	·	-25%
CCCCNC(=O)C1CCCN(S(=O)(=O)c2c(C)noc2/C=C/c2cccs2)C1 (stereo not drawn)	0%	-2%	·	·	·	-3%	·	?
Cc1nc2sccn2c(=O)c1S(=O)(=O)NCC(C)c1ccccc1 (stereo not drawn)	-15%	0%	·	·	·	17%	·	?
COC(=O)C1=C(C)N=c2s/c(=C3\C(=O)Nc4ccccc43)c(=O)n2C1c1ccccc1 (stereo not drawn)	·	12%	·	24%	-8.5%	-5%	·	·
COc1ccc(-c2[nH]ncc2CN2CCCN(C(=O)c3ccco3)CC2)cc1F	-5%	2%	·	·	·	-1%	·	-22%
COc1ccc(-c2c(C#N)c(SCC(=O)Nc3ccccc3)nc3c2CCCC3)cc1	5%	·	?	·	·	·	-12%	9%
Cc1occc1C(=O)NC1CCCc2ccccc21 (stereo not drawn)	?	-18%	0%	-7%	-1.2%	-64%	12%	-10%
COc1cc2c(=O)n(CC3CCCO3)c(=O)n(CC(=O)Nc3ccc(F)cc3F)c2cc1OC (stereo not drawn)	-6%	4%	·	?	-0.6%	-20%	·	?
CCCC(=O)N(CCc1ccc(OC)cc1)Cc1nc2ccccc2c(=O)[nH]1	2%	7%	0%	4%	0.7%	-5%	?	·
Cc1ccc(Nc2ncnc3nc[nH]c23)cc1Cl	0%	8%	·	-13%	0.9%	-60%	·	18%
C=C1C(=O)c2sccc2C(c2ccc(OC)c(OC)c2)C1COC(C)=O (stereo not drawn)	4%	·	0.89µM*	·	·	·	7.9µM*	13µM*
COC(=O)CCC(=O)NC(=S)Nc1ccc(S(=O)(=O)Nc2cc(C)on2)cc1	1%	3%	·	·	·	22%	·	34%[activator]
Cc1ccc(NC(=O)CSc2nc3c(c(=O)n(C)c(=O)n3C)n2C)cc1	-5%	9%	15%	·	·	-3%	15%	-16%
COc1ccc(CN2COc3ccc4c(oc(=O)c5ccccc54)c3C2)cc1OC	·	·	?	-9%	-5.6%	·	20%[46.1 µM]	-24%
CC(OC(=O)Cn1[nH]c(=O)c2ccccc2c1=O)C(=O)Nc1ccccc1[N+](=O)[O-] (stereo not drawn)	12%	27%	?	·	·	·	-2%	-13%
CCN1C(=O)c2cccc3c(S(=O)(=O)Nc4ccccn4)ccc1c23	0%	-2%	8%	5%	-3.1%	1%	3%	117%[activator]
Cc1nc2scc(C)n2c(=O)c1S(=O)(=O)N1CCN(c2cccc(C(F)(F)F)c2)CC1	2%	-10%	?	?	-10.0%	9%	16%&-13%[46.1 µM]	-13%&-25%

High-throughput results: PubChem, National Center for Advancing Translational Sciences (NCATS)
